Compound activity deposited in PubChem BioAssay by several laboratories.
ALR H2O2 inh – inhibitors of human ALR sulfhydryl oxidase, primary screen, biochemical, H2O2 detection, HRP-luminol luminescence, single point. FAD-linked sulfhydryl oxidase ALR (Homo sapiens), P55789. purified ALR, DTT oxidation. inhibition, % (concentration not given with the values). 290,000 tested, 3.8% active;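 active = mean and each replicate at 75% or more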;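 also: stock transfer was 7.5 nL into about 7.5 µL; 0% = neutral wells and 100% = wells with inactivated enzyme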
Target sequence (P55789 whole entry, looked up): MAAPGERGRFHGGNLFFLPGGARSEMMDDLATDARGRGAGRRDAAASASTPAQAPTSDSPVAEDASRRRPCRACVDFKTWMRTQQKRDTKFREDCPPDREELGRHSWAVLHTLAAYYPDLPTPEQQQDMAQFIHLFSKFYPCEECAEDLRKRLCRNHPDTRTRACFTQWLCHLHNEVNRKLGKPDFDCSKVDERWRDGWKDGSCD
E coli growth – E. coli growth inhibition, primary screen, OD600. 330,000 tested, 0.21% active. Escherichia coli growth, 23 h; stronger effect = lower value. OD600 absorbance (concentration not given with the values);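 active = OD600 absorbance below the run mean of sample wells minus 3.6 SD, in any replicate, cut at about 0.56 in these data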;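 also: stock transfer was 300 nL into about 60 µL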
MLL AF4-AF9 inh – inhibitors of AF4 peptide binding to AF9, primary screen, biochemical, AlphaScreen, biotin-AF4 peptide, FLAG-AF9, single point; Protein AF-9 (Homo sapiens), P42568; inhibition, % at 10 µM; 350,000 tested, 0.47% active;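 active = every replicate reaching a set inhibition limit, whatever the replicate mean, cut at about 25% in these data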;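 also: 0% = plate neutral control median and 100% = total signal loss; the record names both 10 and 1 µM as test concentration; the first replicate is given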
Target sequence (P42568 whole entry, looked up): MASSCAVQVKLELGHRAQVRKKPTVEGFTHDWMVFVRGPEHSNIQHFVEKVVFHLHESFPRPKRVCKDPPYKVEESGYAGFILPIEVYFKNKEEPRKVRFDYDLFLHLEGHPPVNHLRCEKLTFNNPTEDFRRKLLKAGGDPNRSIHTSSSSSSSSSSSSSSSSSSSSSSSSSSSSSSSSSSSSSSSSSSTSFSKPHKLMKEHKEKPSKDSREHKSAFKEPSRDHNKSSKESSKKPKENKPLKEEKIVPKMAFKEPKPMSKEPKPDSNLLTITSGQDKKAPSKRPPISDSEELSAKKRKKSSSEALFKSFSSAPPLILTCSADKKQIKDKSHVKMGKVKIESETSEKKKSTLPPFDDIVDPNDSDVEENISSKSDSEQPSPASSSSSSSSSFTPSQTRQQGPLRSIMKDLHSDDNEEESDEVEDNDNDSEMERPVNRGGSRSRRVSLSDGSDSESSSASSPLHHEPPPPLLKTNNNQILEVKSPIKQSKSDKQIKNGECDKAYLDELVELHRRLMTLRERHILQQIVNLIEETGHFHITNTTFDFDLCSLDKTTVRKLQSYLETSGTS
FGF22 binding – binders of human FGF22 protein, primary screen, FGF22 synaptogenesis inhibitor project, biophysical, thermal shift, single point; Fibroblast growth factor 22 (Homo sapiens), Q9HCT0; recombinant FGF22 thermal shift, SYPRO orange fluorescence; percent of sucrose octasulfate shift, DMSO zero; calls only at 9.99 µM; 340,000 tested, 1.5% active;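 active = melting point raised past a set limit in the mean and every replicate; three in four hits are not shown here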
Target sequence (Q9HCT0 whole entry, looked up): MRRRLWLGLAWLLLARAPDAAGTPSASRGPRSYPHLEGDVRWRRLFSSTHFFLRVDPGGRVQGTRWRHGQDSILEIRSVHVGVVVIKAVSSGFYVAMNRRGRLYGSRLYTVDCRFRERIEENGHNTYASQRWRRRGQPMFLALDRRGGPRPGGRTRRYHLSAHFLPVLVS
Vif A3G – inhibitors of Vif binding to APOBEC3G peptide, primary screen, biochemical, TR-FRET, GST-Vif 1-94, biotin-A3G peptide, dose response retest (AID 1117319); TR-FRET GST-Vif / biotin-A3G peptide binding; higher % means a stronger effect; test concentration not given here; strong numbers were not always called active; inhibition, %, or IC50 in µM where a hit was titrated; 260,000 tested, 0.57% active; Virion infectivity factor (Human immunodeficiency virus type 1 group M subtype B (isolate …;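 active = above the screen mean plus three standard deviations and confirmed in dose response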;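 also: Vif residues 1-94 fused to GST binding biotinylated APOBEC3G peptide 110-148; 0% = full assay without inhibitor and 100% = GST in place of GST-Vif; retest series ran down from 100 µM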
Ecoli rRNA inh – reduced GFP signal of wild-type E. coli, primary screen, bacterial rRNA inhibitor project, GFP/RFP fluorescence, OD600, single point. E. coli WT GFP vs humanized-ribosome RFP mutants, 24 h; stronger effect = lower value; DMSO median 0, no signal -100. GFP signal change (wild-type ribosome), % (test concentration not listed). 350,000 tested, 1.6% active. AID 720706, 2013;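 active = significant combined selectivity score with lowered wild-type GFP, culture density cut under 30%, mutant RFP and density less affected; inactive = any of these conditions unmet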; also: one replicate is shown; some compounds called inactive have numbers as strong as hits
HNF4A DNA FP – change in binding of human HNF4A to DNA, primary screen, biochemical, fluorescence polarization, FITC-DNA. activity change, % at 10 µM. 360,000 tested, 0.3% active. 1 h. Hepatocyte nuclear factor 4-alpha (Homo sapiens), P41235. AID 1224865, 2016; in the data active = activity change above about 30%, passing the limit was not always enough;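 also: controls were the assay level and a saturating level of protein; the project sought stronger binding though the title names inhibitors; some compounds called inactive have numbers as strong as hits; positive values seem to mean higher polarization but the record does not say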
Ecoli rRNA inh OD600 – also measured in Ecoli rRNA inh; calls as there; OD600 change, %; measured here: OD600 growth;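 optical density of the mix in the first replicate; 0 = DMSO median and -100 = no signal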
Ecoli rRNA inh RFP – second read-out of Ecoli rRNA inh, no call of its own (marks repeat the call); RFP signal change, %; measured here: RFP humanized mutant strains;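 first replicate; 0 = DMSO median and -100 = no signal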
Numbers without * were called inactive; i = inactive; . = no result given. A portion of the library; the hit share may differ from the screen's.

SMILES	ALR H2O2 inh	E coli growth	MLL AF4-AF9 inh	FGF22 binding	Vif A3G	Ecoli rRNA inh	Ecoli rRNA inh OD600	Ecoli rRNA inh RFP	HNF4A DNA FP
CC(C)NC(=O)Nc1cccc2c1O[C@H](CN(C)C(=O)Nc1cccc3ccccc13)[C@@H](C)CN([C@@H](C)CO)C2=O	.	.	3.4	i	.	2	4	3.1	.
CCN(CC)c1ccc(C=Nc2ccc(N(C)C)cc2)c(O)c1	98*	0.66	.	.	36µM*	.	.	.	104
CN1C(=O)CON=C1c1cccc2ccccc12	.	.	4.2	i	.	0	-9	-9.7	-0.7
C/C=C/c1cnc2c(c1)C(=O)N([C@@H](C)CO)C[C@H](C)[C@H](CN(C)C(=O)Nc1cccc(OC)c1)O2	.	.	-4.6	i	.	2	11	-1.5	.
CCn1c(=S)sc2c(=O)n(-c3ccccc3)c(SC)nc21	-9	0.73	.	.	33%	.	.	.	1.4
CCN(CC(=O)Nc1ccc(OC)cc1)C(=O)C1CCN(C(=O)c2ccc(Cl)cc2)CC1	0	0.6	5.7	i	1%	.	.	.	2.3
Cc1ccccc1NC(=O)C1Cc2ccccc2C(=O)O1 (configuration not stated)	-3	0.66	.	.	-4%	.	.	.	1.6
O=C(CN1C(=O)C2C3C=CC(C3)C2C1=O)OCC(=O)c1ccccc1 (configuration not stated)	-4	0.64	-5.1	i	6%	-6	-7	1.0	0.3
CC=Cc1ccc2n(c1=O)C[C@H]1[C@H](CO)[C@@H](C(=O)Nc3nccs3)N(Cc3ccccc3F)[C@@H]21 (mixture of isomers)	.	.	-0.1	i	.	-5	-10	2.2	.
O=C(Nc1nnc([C@H]2C[C@H](O)[C@@H](CO)O2)s1)c1ccc(Oc2ccccc2)cc1	.	.	0.8	i	.	2	-6	-0.1	0.8
CCC/C=C1/CCCOC(C(=O)NCc2cc(C)n(C)n2)(C(F)(F)F)C1 (configuration not stated)	2	.	-3.8	i	.	2	0	1.5	-0.1
COc1ccccc1OCCC(=O)Nc1cccc(S(=O)(=O)N2CCCCC2)c1	.	0.71	.	.	-3%	.	.	.	-3.5
COc1ccc(CCN(C)CC(O)COC(c2ccc(F)cc2)c2ccc(F)cc2)cc1OC (configuration not stated)	-3	0.68	14	i	-9%	-6	-37	19	1.0
CC(C)CNC(=O)c1cc(-c2ccc(Br)cc2)on1	0	0.74	-7.8	i	-2%	1	14	-12	5.2
COc1cccc(/C=N/NC(=O)c2ccc(COc3ccc(Cl)cc3Cl)o2)c1	-9	.	.	.	1%	.	.	.	2.2
O=C(NCC1CC1)c1csc([C@@H]2O[C@H](CO)[C@H](O)[C@H](O)[C@H]2O)n1	.	.	-2.8	i	.	5	18	0.1	-0.2
O=C(CSc1nnc2ccccn12)Nc1ncc(Cl)cc1Cl	-4	0.68	.	.	2%	.	.	.	3.0
Cc1ccc(OCC(=O)Nc2ccc3c(c2)nc(CCN2CCC(C)CC2)n3C)cc1	-6	0.69	3.1	i	.	10	6	0.6	4.0
CCN1[C@H](C(=O)N(C)C)[C@@H](CO)[C@@H]2Cn3c(ccc(-c4ccc(F)cc4)c3=O)[C@@H]21	.	.	0.0	i	.	2	7	-3.8	.
CC1(c2ccc(O)cc2)NC(=O)N(c2ccccc2)N1 (configuration not stated)	98*	0.7	0.2	i	-4%	5	8	2.1	2.1

One compound at a time (already shown).
Listed for Cc1ccc(OCC(=O)Nc2ccc3c(c2)nc(CCN2CCC(C)CC2)n3C)cc1 : ALR H2O2 inh: -6; E coli growth: 0.69; MLL AF4-AF9 inh: 3.1; FGF22 binding: i; Vif A3G: .; Ecoli rRNA inh: 10; Ecoli rRNA inh OD600: 6; Ecoli rRNA inh RFP: 0.6; HNF4A DNA FP: 4.0
Listed for Cc1ccccc1NC(=O)C1Cc2ccccc2C(=O)O1 (configuration not stated) : ALR H2O2 inh: -3; E coli growth: 0.66; MLL AF4-AF9 inh: .; FGF22 binding: .; Vif A3G: -4%; Ecoli rRNA inh: .; Ecoli rRNA inh OD600: .; Ecoli rRNA inh RFP: .; HNF4A DNA FP: 1.6
Listed for COc1ccccc1OCCC(=O)Nc1cccc(S(=O)(=O)N2CCCCC2)c1 : ALR H2O2 inh: .; E coli growth: 0.71; MLL AF4-AF9 inh: .; FGF22 binding: .; Vif A3G: -3%; Ecoli rRNA inh: .; Ecoli rRNA inh OD600: .; Ecoli rRNA inh RFP: .; HNF4A DNA FP: -3.5

Next compounds
SMILES	ALR H2O2 inh	E coli growth	MLL AF4-AF9 inh	FGF22 binding	Vif A3G	Ecoli rRNA inh	Ecoli rRNA inh OD600	Ecoli rRNA inh RFP	HNF4A DNA FP
O=C(CN1C(=O)C(=O)N(C2CCCC2)C1=O)Nc1ccc(OC(F)F)cc1	12	0.71	-1.1	i	.	21	13	0.1	-0.4
O=S(=O)(Nc1ccncc1)c1ccc(Cl)c(Cl)c1	-7	0.62	-0.2	i	.	3	6	-3.2	-0.3
CSCCC(NC(=O)c1ccc([N+](=O)[O-])cc1Cl)C(=O)OCC(=O)N1CCN(C(C)=O)CC1 (configuration not stated)	-35	0.7	-0.6	i	7%	-11	14	-3.4	3.3
CC1CCCN(C(=O)CCCC(=O)N2CCCC(C)C2)C1 (configuration not stated)	-5	0.71	-2.1	i	-2%	6	4	-1.6	-1.6
CC1CCN(C(=O)C2CCN(C(=O)c3ccc(C(C)(C)C)cc3)CC2)CC1	.	0.71	-0.9	.	-11%	-1	2	1.4	0.9
Nc1nc(SCC(=O)Nc2ccccc2C(F)(F)F)[nH]c(=O)c1-c1ccccc1	-7	0.68	-3.1	i	0%	11	5	-1.1	1.5
Cc1ccc(S(=O)(=O)NCC[C@@H]2CC[C@@H](NC(=O)Nc3cccc(F)c3)[C@H](CO)O2)cc1	.	.	3.3	i	.	-7	-18	2.1	.
CCCc1cc2c(=O)c(-c3ccc4c(c3)OCCO4)coc2cc1OS(C)(=O)=O	-3	0.72	5.8	i	28%	-17	-15	-3.5	-2.1
CN1CCN(NC(=O)COc2cccc(C(F)(F)F)c2)CC1	3	0.67	2.5	i	29%	2	6	9.1	1.7
CC(=O)Nc1cccc(NC(=O)C2CC3CCC2C3)c1 (configuration not stated)	-11	0.67	.	.	29%	.	.	.	0.7
C[C@H]1CN([C@@H](C)CO)C(=O)Cc2cc(NC(=O)Cc3cn(C)c4ccccc34)ccc2O[C@H]1CN(C)S(C)(=O)=O	.	.	0.1	i	.	5	3	-0.6	.
C[C@@H]1CN([C@H](C)CO)S(=O)(=O)c2ccc(-c3ccncc3)cc2O[C@H]1CN(C)S(C)(=O)=O	.	.	-12	i	.	-1	-11	-1.1	.
CCC(=O)N1CCCCN2[C@@H](CO)[C@@H](c3ccc(/C=C/c4ccccc4)cc3)[C@@H]2C1	.	.	7.3	i	.	5	-37	-2.4	.
C/C=C/c1ccc([C@H]2[C@H](CO)N3C(=O)CN(C(=O)NC4CCCCC4)C[C@@H]23)cc1	.	.	-0.3	i	.	2	18	-0.6	.
COc1ccc(/C=C/c2nnc(NC(=O)COc3cccc(C)c3)s2)cc1	-4	0.73	-7.1	i	.	7	5	-2.1	-1.7
C[C@@H]1CN([C@H](C)CO)C(=O)c2cc(NC(=O)Nc3ccc(F)cc3)ccc2O[C@@H](C)CCCCO[C@H]1CN(C)C(=O)C1CCCCC1	.	.	5.2	i	.	1	7	1.3	.
CO[C@H]1CN(C)C(=O)c2cc(NC(=O)NC(C)C)ccc2OC[C@@H](C)N(C(=O)NC(C)C)C[C@H]1C	.	.	-0.4	i	.	0	2	0.4	.
CO[C@H]1CN(C)C(=O)c2cc(NC(=O)C3CC3)ccc2OC[C@@H](C)N(C(=O)c2ccncc2)C[C@@H]1C	.	.	5.8	i	.	0	3	-0.5	.
O=C(C[C@H]1CC[C@H]2[C@@H](COC[C@@H](O)CN2Cc2ccc(C(F)(F)F)cc2)O1)NCCc1ccccc1	.	.	-3.5	i	.	-7	-50	4.9	.
C=CCNC(=O)CSCc1ccc(Br)cc1	-9	0.71	-0.8	i	0%	4	9	1.6	0.6

Brought forward from above: 3 entries, followed by the next part.
SMILES	ALR H2O2 inh	E coli growth	MLL AF4-AF9 inh	FGF22 binding	Vif A3G	Ecoli rRNA inh	Ecoli rRNA inh OD600	Ecoli rRNA inh RFP	HNF4A DNA FP
CO[C@H]1CN(C)C(=O)c2cc(NC(=O)C3CC3)ccc2OC[C@@H](C)N(C(=O)c2ccncc2)C[C@@H]1C	.	.	5.8	i	.	0	3	-0.5	.
O=C(C[C@H]1CC[C@H]2[C@@H](COC[C@@H](O)CN2Cc2ccc(C(F)(F)F)cc2)O1)NCCc1ccccc1	.	.	-3.5	i	.	-7	-50	4.9	.
C=CCNC(=O)CSCc1ccc(Br)cc1	-9	0.71	-0.8	i	0%	4	9	1.6	0.6
CC(=O)NCCNC(=O)c1ccc(CSc2nc3ccccc3s2)cc1	99*	.	-12	i	.	-8	-13	-5.4	3.1
CN(C)C(=S)Oc1ccccc1C1(C)OCCO1	.	.	-5.1	i	6%	10	11	0.6	-0.3
CCN1CCN(c2nc3c(C)cccn3c(=O)c2/C=C(\C#N)C(=O)NCCCOC)CC1	1	0.67	-1.1	i	2%	1	3	-1.6	8.9
Cc1noc(C)c1NC(=O)Nc1ccc2c(c1)C(=O)N([C@@H](C)CO)C[C@@H](C)[C@H](CN(C)S(=O)(=O)c1cccs1)O2	.	.	-1.0	i	.	3	3	-3.7	.
C[C@H]1CN([C@@H](C)CO)C(=O)c2cc(NS(C)(=O)=O)ccc2O[C@H]1CN(C)C(=O)Nc1ccc(F)cc1	.	.	-0.9	i	.	4	10	-0.7	.
COc1ccc(NC(=O)Nc2cccc3c2O[C@H](CN(C)C(=O)Nc2ccc(F)cc2)[C@H](C)CN([C@@H](C)CO)C3=O)cc1	.	.	0.4	i	.	-2	0	-2.6	.
Clc1ccc(Cl)c(-c2nc(-c3ccncc3)no2)c1	-4	0.64	0.6	i	.	13	10	6.2	7.3
C/C(=N\NC(=O)COc1cccc(Cl)c1)c1ccc2c(c1)OCCO2	2	.	.	.	-6%	.	.	.	-1.4
O=C(C[C@@H]1CC[C@@H](NC(=O)C2CC2)[C@@H](CO)O1)NCc1ccccc1Cl	.	.	2.5	i	.	-1	-1	-0.5	.
COC(=O)c1sccc1NC(=S)N(C)C1CCCCC1	.	0.68	-1.4	i	-5%	-26*	-18*	0.1*	1.4
CCN(c1ccccc1)S(=O)(=O)c1ccc(C(=O)NCC(c2ccccc2OC)N2CCCC2)cc1 (configuration not stated)	.	0.62	-0.2	i	.	-3	-3	1.6	2.9
CCc1nc2ccc(C(=O)Nc3cccc(OC)c3)cn2c1N(C)CCCc1ccccc1	.	.	0.3	i	.	-1	-6	-0.7	-3.4

3 of the entries above in order of their number in Ecoli rRNA inh, rising.
compound | Ecoli rRNA inh
O=C(C[C@@H]1CC[C@@H](NC(=O)C2CC2)[C@@H](CO)O1)NCc1ccccc1Cl | -1
Cc1noc(C)c1NC(=O)Nc1ccc2c(c1)C(=O)N([C@@H](C)CO)C[C@@H](C)[C@H](CN(C)S(=O)(=O)c1cccs1)O2 | 3
CN(C)C(=S)Oc1ccccc1C1(C)OCCO1 | 10
